Screens (PubChem)
Vaccinia mCherry = inhibitors of vaccinia virus infection (mCherry reporter signal); 310,000 tested, 0.63% active; AID 720579; Vaccinia virus mCherry reporter infection, fluorescence; about a quarter of the inactives have no number; Potency, µM (titrated, usually from 36.5 µM), inactives show at the top dose activity change, negative = inhibition, usual class: inhibitors; active = well fitted inhibition curve with a large enough effect; inconclusive = small, poorly fitted or top-dose-only effect; inactive = no such curve, though single readings can be large or run the other way; tested in A549 cells; note: nearly all actives have a fitted effect of over 35% in size; inactives centre near -10
VACV Venus inh = vaccinia inhibition (Venus reporter). Vaccinia virus Venus reporter expression, fluorescence. Potency, µM (titrated, usually from 36.5 µM), for inactives: at the top dose activity change, negative = inhibition, most hits filed as inhibitors. 330,000 tested, 0.46% active; active means well fitted inhibition curve with a large enough effect; inconclusive means small, poorly fitted or top-dose-only effect; inactive means no such curve, though single readings can be large or run the other way; tested in A549 cells; note: nearly all actives have a fitted effect of over 30% in size; inactives centre near -10
Starred values were filed as active, the others as inactive; i = inactive; ? = inconclusive; nt = no result given; & = joins results of further samples; [ ] = another dose, or the depositor's remark. % is set by controls: 0 for no effect and ±100 for the full control effect; potency is the fitted concentration of half-maximal effect.

SMILES | Vaccinia mCherry | VACV Venus inh
Cc1ccc(OCc2nnc(N)s2)cc1C | -14% | -6%
COc1ccccc1NC(=O)Cn1cncc1-c1ccc([N+](=O)[O-])cc1 | -2% | -12%
O=Cc1c(NCCN2CCOCC2)c2ccccc2[nH]c1=O | i | 3%
Nc1ccnc(C(F)(F)F)c1C(=O)c1ccccc1 | nt | ?
CN1CCN(CC(=O)Nc2ccc(Cl)cc2Cl)CC1 | -14% | -6%
N=C1C(=O)OCC1c1ccccc1NC(=O)c1ccc(F)cc1 (stereo not drawn) | i | -6%
O=C(Nc1cccc([N+](=O)[O-])c1)C1CC(=O)N(C2CCCCC2)C1 (stereo not drawn) | -4% | -3%
CSc1ccccc1C(=O)NC1CCCN(Cc2ccccc2F)C1 (stereo not drawn) | -23% | -15%
O=C(/C=C/c1ccccc1Cl)c1ccccc(=O)c1O | 10µM* | ?
O=C(O)CCCNC(=O)CCCNC(=O)C(c1ccccc1)c1ccccc1 | -10% | -17%
CC(OC(=O)C1CCN(c2ccc(C(F)(F)F)cn2)CC1)C(=O)Nc1ccc(S(N)(=O)=O)cc1 (stereo not drawn) | i | -12%
Cc1ccc2oc(C(=O)Nc3sc4c(c3C(=O)NCc3ccccc3)CCCC4)cc(=O)c2c1 | -6% | -5%
CCOc1ccc2c(C)nc(NC3=NC(C)(C)C=C(C)N3)nc2c1 | -17% | ?
Cc1ccc(C)c(NS(=O)(=O)c2cc(C(=O)NCCSC3CCCCC3)ccc2C)c1 | ? | -27%
COc1cc(/C=C/C(=O)O)cc(S(=O)(=O)Nc2ccc3c(c2)OCO3)c1OC | -20% | -15%
Cc1cccc(Cn2nc(C)n3c(cc4cc(C)ccc43)c2=O)c1 | -15% | -8%
COC(=O)c1ccc(NC(=O)CN(c2ccc3c(c2)OCO3)S(C)(=O)=O)cc1 | -10% | -11%
CCN(CC)CCCNC(=O)c1cc(Cl)c(NC(=O)C2=C(C)OCCS2)cc1OC | -3% | -23%
CCc1ccc(S(=O)(=O)c2nnn3c2nc(N(CC)Cc2ccccc2)c2cc(Cl)ccc23)cc1 | -18% | -19%
C=CCN(c1ccccc1)S(=O)(=O)c1cccc(C(=O)NC2CCC(O)CC2)c1 (stereo not drawn) | i | -8%
Cc1nn(-c2ccccc2)c(C)c1NC(=O)COc1ccc([N+](=O)[O-])cc1 | -18% | -7%
CC1(C)CC(=O)C(CC(=O)Nc2cc(C(F)(F)F)ccc2Cl)C(=O)C1 | -8% | -4%
CC(=O)OCC(=O)C1CCC2C3CCC4=CC(=O)C=CC4(C)C3CCC12C (stereo not drawn) | 0% | -21%
CN(C)CCCN(C(=O)C1=COCCO1)c1nc2ccc(Br)cc2s1 | ? | -29%
O=C(COc1ccccc1/C=C1\SC(=S)NC1=O)Nc1ccc(F)cc1 | -13% | -10%
CC(C(=O)N(C)Cc1ccccc1)N1CCN(C/C=C/c2ccccc2)CC1 (stereo not drawn) | i | 15%
CCCCn1c(N)c(N(CCC(C)C)C(=O)C2CC(=O)N(CCc3ccc(OC)c(OC)c3)C2)c(=O)[nH]c1=O (stereo not drawn) | -10% | -14%
O=C(CN1C(=O)NC2(CCCc3ccccc32)C1=O)NCc1ccc(Cl)cc1Cl (stereo not drawn) | -25% | ?
C[C@@]12C(=O)Nc3cc(F)c(F)cc3C(=O)N1[C@H]1c3cc(Cl)ccc3OC[C@@H]1[C@@H]2c1ccccc1 | ? | ?
CC1CC(NS(=O)(=O)c2cc3c4c(c2)CCN4C(=O)CC3)CC(C)(C)C1 (stereo not drawn) | -11% | -8%

Given field by field: part of the list above
structure: O=C(CN1C(=O)NC2(CCCc3ccccc32)C1=O)NCc1ccc(Cl)cc1Cl (stereo not drawn)
  Vaccinia mCherry = -25% | VACV Venus inh = ?

structure: CC1(C)CC(=O)C(CC(=O)Nc2cc(C(F)(F)F)ccc2Cl)C(=O)C1
  Vaccinia mCherry = -8% | VACV Venus inh = -4%

structure: O=C(Nc1cccc([N+](=O)[O-])c1)C1CC(=O)N(C2CCCCC2)C1 (stereo not drawn)
  Vaccinia mCherry = -4% | VACV Venus inh = -3%

The list goes on.
SMILES | Vaccinia mCherry | VACV Venus inh
COC(=O)C1C2CC(=O)C(C2)C1C(=O)OC (stereo not drawn) | -14% | -7%
Cc1ccc(Nc2c(F)c(F)c(F)c(F)c2C(=O)O)cc1 | i | -4%
CC(C)OC(=O)N(C)C[C@H]1OCc2cnnn2CCCC(=O)N([C@@H](C)CO)C[C@H]1C | -8% | -12%
COc1ccc(Cl)cc1NC(=O)c1sc2nc3n(c(=O)c2c1C)CCC3 | 1% | -7%
COC(=O)c1cc(=O)nc2sc3ccccc3n12 | -11% | -4%
O=C(Nc1cccc(C(F)(F)F)c1)c1cnn(-c2cccc(F)c2)c1C1CCNCC1 | -18%[7.34 µM] | -19%[7.34 µM]
Cc1ccc(N2C(=O)CC(Cc3cc(C)cc(C)c3)C2=O)cc1 (stereo not drawn) | -27% | -4%
COc1cccc(Sc2cc(N3CCOCC3)nc(-c3ccccc3)n2)c1 | -11% | ?
COC(=O)C1(CCSC)NC(c2ccco2)C2C(=O)N(C)C(=O)C21 (stereo not drawn) | -6% | -5%
CC1N(C)c2cccc3cccc(c23)N1C | -14% | 3%
O=C(NCCc1ccccc1)c1ccc(Cn2c(SCc3ccc(F)cc3)nc3cccnc32)cc1 | -12% | -10%
Cc1cnc(C(=O)NCC(c2ccccc2)c2ccccc2)cn1 | -18% | -9%
O=C(O)c1c2c(nc3ccccc13)CCCCC2 | i | -6%
COc1ccc2nc(N(CCN(C)C)C(=O)c3ccc(C(=O)c4ccccc4)cc3)sc2c1 | -24% | -14%
CCOc1ccc(CCN2C(=S)N([C@@H](CC(C)C)CN3CCC[C@@H]3CN3C(=S)NC[C@@H]3Cc3ccc(O)cc3)C[C@@H]2CC(C)C)cc1 | -2% | -12%
Cc1cc(=O)c(C(=O)O)nn1-c1ccccc1C(F)(F)F | -1% | -2%
CC(=O)Oc1ccc([N+](=O)[O-])cc1N1C(=O)c2ccccc2C1=O | -10% | -11%
Cc1nn(Cc2ccccc2)c(Cl)c1/C=N/NC(=O)c1cccnc1 | i | -7%
Cc1onc(NC(=O)NC(=O)c2ccccc2F)c1Br | -13% | -20%
COC(=O)c1scc(-c2ccc(C)cc2)c1S(=O)(=O)Nc1cc(C)c(Cl)cc1OC | -12% | 5%

Whole records from above:
Entry for Cc1ccc(N2C(=O)CC(Cc3cc(C)cc(C)c3)C2=O)cc1 (stereo not drawn) = Vaccinia mCherry: -27%; VACV Venus inh: -4%
Entry for O=C(Nc1cccc(C(F)(F)F)c1)c1cnn(-c2cccc(F)c2)c1C1CCNCC1 = Vaccinia mCherry: -18%[7.34 µM]; VACV Venus inh: -19%[7.34 µM]
Entry for COC(=O)c1scc(-c2ccc(C)cc2)c1S(=O)(=O)Nc1cc(C)c(Cl)cc1OC = Vaccinia mCherry: -12%; VACV Venus inh: 5%

Copied from the list:
For VACV Venus inh, Cc1nn(Cc2ccccc2)c(Cl)c1/C=N/NC(=O)c1cccnc1 has -7%
For Vaccinia mCherry, O=C(NCCc1ccccc1)c1ccc(Cn2c(SCc3ccc(F)cc3)nc3cccnc32)cc1 has -12%
For Vaccinia mCherry, CC(=O)Oc1ccc([N+](=O)[O-])cc1N1C(=O)c2ccccc2C1=O has -10%
For VACV Venus inh, O=C(O)c1c2c(nc3ccccc13)CCCCC2 has -6%
For Vaccinia mCherry, Cc1cc(=O)c(C(=O)O)nn1-c1ccccc1C(F)(F)F has -1%
For VACV Venus inh, Cc1onc(NC(=O)NC(=O)c2ccccc2F)c1Br has -20%

Other records
SMILES | Vaccinia mCherry | VACV Venus inh
O=C(CSc1nnc(-c2cccnc2)o1)Nc1ccc(F)cc1 | -8% | -17%
Fc1cccc(CN2CCN(C(=S)NCCc3ccccc3)CC2)c1 | -9% | -8%
CC1=CC=CC2=N/C(=N\S(=O)(=O)c3ccc(F)cc3F)c3ccccc3CN12 | -6% | -12%
C[C@]12CCC(=O)C=C1CC[C@@H]1[C@@H]2CC[C@]2(C)C(=O)CC[C@@H]12 | -7%&-11% | -11%&0%
Cc1ccc(NS(=O)(=O)c2ccc3c(c2)CCCN3C(=O)C2CCC2)cc1Cl | -22% | -27%
CCOC(=O)c1c(NC(=O)c2ccc(C)c(C)c2)sc2c1CCCCC2 | -14% | -13%
CCOC(=O)N1CCc2c(sc3c2c(=O)n(-c2ccccc2C(F)(F)F)c(=O)n3Cc2ccccc2C)C1 | -17% | -14%
CCOCCCn1c(=S)[nH]c2ncccc2c1=O | -2% | 3%
CC(C)C(=O)Nc1c2c(nn1-c1ccc([N+](=O)[O-])cc1)CS(=O)(=O)C2 | i | -16%
COc1ccc(NC(=O)c2cc(C)nn2-c2ccccc2)cc1 | -13% | 1%
c1ccc(-n2ncc3c(N4CCC5(CC4)OCCO5)ncnc32)cc1 | -6% | -5%
COc1ccc(CNC(=O)Nc2nc(C(N)Cc3ccc(F)cc3)cs2)cc1 (stereo not drawn) | -21% | ?
CC(C)CC(=O)NC(=S)NNC(=O)c1cccc([N+](=O)[O-])c1 | -13% | -9%
CSc1ccc(-c2nc3cc(C)ccn3c2Nc2ccc(C)cc2)cc1 | i | -14%
COc1ccccc1NC(=O)c1ccc(NC(=O)CNC(=O)c2ccc(OC)c(OC)c2)cc1 | -5% | 5%
O=C1CC(c2ccc3ccccc3c2)NN1 (stereo not drawn) | i | -11%
O=C(CN1C(=O)c2ccccc2S1(=O)=O)Nc1cccnc1 | nt | 0%
COC(=O)C1=C(C(=O)OC)[C@@H]2N(Cc3ccccc3)c3ccccc3[C@@]23C[C@@H](C(=O)OC)N(C(=O)C2CCC2)C3=N1 | -11% | -14%
CC(=O)N1CCN(CC(=O)Nc2cc(S(=O)(=O)N3CCOCC3)ccc2C)CC1 | -13% | -12%
COc1ccc(Nc2nc(-c3cccs3)nc3ccccc23)cc1 | -30% | ?
CCN(CC)C(=O)[C@H]1CC(CC(=O)NCc2ccc(OC)c(OC)c2)C(=O)N2CCc3c([nH]c4ccc(OC)cc34)[C@]12C (stereo partly drawn) | i | -6%
C=CCC(NC(=O)N(C)C)(C(C)=O)C(=O)OC (stereo not drawn) | -11% | -2%
O=c1c2ccccc2c(C=NCCCN2CCOCC2)c(O)n1Cc1ccc2c(c1)OCO2 | i | -18%
COC(=O)c1c(SC)nc2ccccc2c1OCc1ccccc1Cl | i | -5%
Cc1cc(C)c(C)c(Oc2ncnc(N)c2[N+](=O)[O-])c1 | -24% | -19%
CCCNC(=O)C1(C)CCN(Cc2cc(C(F)(F)F)ccc2Cl)C1 (stereo not drawn) | 8% | 8%
O=C(COc1ccc2ccccc2c1)N1CCN(c2ccccc2O)CC1 | i | -11%
NC(=O)C1(N2CCCCC2)CCN(Cc2ccccc2)CC1 | -15% | -6%
CCOc1ccc(NC(=O)C2CCN(S(=O)(=O)c3c(C)noc3/C=C/c3c(C)cc(C)cc3C)CC2)cc1 | -18%[7.34 µM] | -19%[7.34 µM]
CCN(CC)CCN(C(=O)C1=COCCO1)c1nc2cc(C)cc(C)c2s1 | i | -22%
COc1ccc(/C=C(\NC(=O)c2ccc(C)cc2)C(=O)NCCCN2CCOCC2)cc1OC | -3% | -12%
C1CCc2c(nc3nnnn3c2N2CCOCC2)C1 | 1% | 2%
O=C(COc1ccccc1)NCc1nnc2c3ccccc3c(-c3ccccc3)nn12 | -9% | -13%
Oc1ccccc1C=NNC(=S)Nc1ccc(F)cc1 | 5.6µM* | ?
COc1ccc(CCNCc2ccsc2)cc1OC | -14% | 4%
Cc1cc(-c2n[nH]c(=S)n2/N=C/c2ccc(C)o2)n[nH]1 | -14% | -1%
CCNC(=S)Nc1ccc(Cl)cc1Cl | -24% | -12%
Cc1csc(=O)n1CCC(=O)OCC(=O)c1ccc(Br)cc1 | -4% | -4%
CC1(C)CC(Cc2cccc(C(F)(F)F)c2)N(C(=O)OC(C)(C)C)C1 (stereo not drawn) | -20% | -14%
Cc1ccc(NCC(=O)N=Nc2c(O)[nH]c3ccc([N+](=O)[O-])cc23)cc1 | i | -1%
COc1ccccc1NC(=O)Cn1c(SCC(=O)NCc2ccccc2)nc2ccccc21 | 0% | -7%
CCOc1ccccc1-c1nnc(SCC(=O)NC2CC2)n1CC | -11% | -19%
COC(=O)CCC(=O)c1oc2ccc(OC)cc2c1N | -5% | 2%
COc1ccc2oc(C(=O)OCC(=O)NCCc3ccccc3)c(C)c2c1 | -1% | -6%
CSc1ccc(CN2CCCCCC2)cc1 | -9% | -1%
CC(NC(=O)[C@H](C)NC(=O)c1ccco1)c1ccc(S(N)(=O)=O)cc1 (stereo partly drawn) | -21% | 1%
Cn1c(Cn2nnc3ccccc32)nnc1SCC(=O)c1ccccc1F | -2% | 7%
Cc1nc2sc(C(c3ccc(Cl)cc3)N3CCN(c4ccccc4F)CC3)c(O)n2n1 (stereo not drawn) | -26% | -18%
CN(C)c1nnnn1Cc1ccccc1 | i | 4%
COc1ccc(-c2cc(C(=O)Nc3c(C)nn(Cc4ccc(F)cc4)c3C)no2)cc1OC | ? | -24%
The listing continues.
SMILES | Vaccinia mCherry | VACV Venus inh
COC(=O)c1ccccc1-n1c(CCC(=O)O)ccc1-c1ccccc1 | -9% | -18%
Cc1ccc(Cc2nc3ccccc3nc2SCC(=O)N2CCN(c3ccccc3F)CC2)cc1 | 6% | -10%
COc1ccc(S(=O)(=O)Cc2ccc(C(=O)NCCc3cc(OC)ccc3OC)o2)cc1 | -2% | 6%
CC(C)Nc1ncnc2c1ncn2[C@H]1CN(Cc2ccc(F)cc2)C[C@@H](CO)O1 | -5% | -9%
C=CCC1(C)C(=O)N(c2ccccc2)c2ccccc21 (stereo not drawn) | -4% | -9%
COc1ccc(C)cc1NC(=O)CN1C(=O)COc2ccc(C)cc21 | -13% | -10%
CCC(=O)N(Cc1ccco1)Cc1cc2cc3c(cc2[nH]c1=O)OCO3 | i | -3%
